# TRPML1 agonist: activates the human TRPML1 channel; hit rate 0.12% among 410,000; activation, % (concentration not given with the values); TRPML1-expressing cells, Ca2+ dye fluorescence, FDSS; host cell line not named in the record; reference of the full effect not given here; in the data active = activation above about 50%; inconclusive = about 30% to 50%; inactive = below about 30%; also: 0% is about no effect; the text of the record puts the active cut at 80%
# Target sequence (Q9GZU1 whole entry, looked up): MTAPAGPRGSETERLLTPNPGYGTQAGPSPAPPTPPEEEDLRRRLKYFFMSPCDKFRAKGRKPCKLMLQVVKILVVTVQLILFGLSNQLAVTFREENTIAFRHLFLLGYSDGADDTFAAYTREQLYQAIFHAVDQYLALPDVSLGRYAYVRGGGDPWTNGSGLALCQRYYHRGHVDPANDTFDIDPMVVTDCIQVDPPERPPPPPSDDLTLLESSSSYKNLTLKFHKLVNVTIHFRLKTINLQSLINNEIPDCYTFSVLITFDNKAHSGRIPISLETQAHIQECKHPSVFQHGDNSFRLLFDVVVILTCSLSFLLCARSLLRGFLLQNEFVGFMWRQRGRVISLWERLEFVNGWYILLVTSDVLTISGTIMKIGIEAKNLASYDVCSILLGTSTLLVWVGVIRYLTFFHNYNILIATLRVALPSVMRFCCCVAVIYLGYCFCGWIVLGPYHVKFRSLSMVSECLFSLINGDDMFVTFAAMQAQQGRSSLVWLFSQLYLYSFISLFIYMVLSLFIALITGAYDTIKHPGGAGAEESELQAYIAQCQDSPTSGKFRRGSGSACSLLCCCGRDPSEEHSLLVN
#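 Agonist activity was taken from a 110 s kinetic Ca2+ dye read on the FDSS after pinning compounds onto TRPML1-DL cells. The cells were seeded at 1,500/well with Tet inducer, incubated about 16 h, then dye-loaded at room temperature.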
# Six1-Eya2 blk: Six1/Eya2 interaction inhibition | AlphaScreen GST-Six1/His-Eya2 binding, biochemical; active compounds read low; control for the full effect not named in the record | AID 651725 | activity change, % (no concentration beside the values) | hit rate 0.56% among 360,000 | Q15475+O00167; in the data active = activity change below about -65%; inconclusive = about -30% to -65%; inactive = above about -30%; also: % is scaled to controls: 0 for no effect and ±100 for the full control effect
#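 Six1/Eya2 binding was read as AlphaScreen signal after compounds were pinned into GST-Six1 plus His-tagged Eya2 (5X stock 250/500 nM) in pH 8.0 Tris/NaCl/TCEP buffer, beads added, then incubated 1 h, 37 C, dark.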
# PINK1 expr mod: PINK1 expression modulation; PINK1 immunofluorescence, high-content cytometry, 24 h; Potency, µM (doses to about 76.6 µM), inactives show top-dose activation (PINK1 increase), hits mostly activators; hit rate 0.2% among 410,000; active = well fitted activation curve with a large enough effect; inconclusive = small, poorly fitted or top-dose-only effect; inactive = flat fitted curve, though single readings scatter; cell line not stated here;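 also: potency is read from the fitted curve at half-maximal effect; % of control where 0% means no effect; nearly all actives have a fitted effect of over 65% in size; a mitochondrial uncoupler was the plate control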
#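 PINK1 protein level read as immunofluorescence by microplate cytometer in a fixed, stained stable cell line after 24 h exposure to five compound concentrations, with CCCP as control.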
# D2 potentiator: positive allosteric modulators of human D2 dopamine receptor. hit rate 0.23% among 360,000. P14416. potentiation, % (no concentration beside the values). DiscoveRx D2 beta-arrestin cells, luminescence, 90 min; 100% = 57 uM dopamine signal. AID 624464; active = potentiation of 50% or more; inconclusive = 30% to 50%; inactive = 30% or less;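 also: compound concentration not given in the record; tested on top of an EC20 dose of dopamine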
# Target sequence (P14416 whole entry, looked up): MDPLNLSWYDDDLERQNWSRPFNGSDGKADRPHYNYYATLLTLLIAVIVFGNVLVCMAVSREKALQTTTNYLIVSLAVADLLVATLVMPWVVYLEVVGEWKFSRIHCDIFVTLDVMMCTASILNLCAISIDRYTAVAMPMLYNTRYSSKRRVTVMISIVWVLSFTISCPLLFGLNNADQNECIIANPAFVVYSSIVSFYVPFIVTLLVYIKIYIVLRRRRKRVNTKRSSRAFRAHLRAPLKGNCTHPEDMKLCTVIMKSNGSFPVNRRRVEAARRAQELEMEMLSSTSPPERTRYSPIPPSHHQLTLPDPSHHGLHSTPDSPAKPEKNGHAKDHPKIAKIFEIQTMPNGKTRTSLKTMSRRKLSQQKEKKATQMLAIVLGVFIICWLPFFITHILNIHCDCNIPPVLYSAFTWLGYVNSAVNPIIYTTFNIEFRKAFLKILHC
#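 PathHunter beta-arrestin assay in DiscoveRx D2 cells. Compounds were added with an EC20 of dopamine (50 nM final) for 90 min at 37 deg C. Luminescence was read 1 h after detection reagent, with 57 uM dopamine as the EC100 control.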
# TRPML1 blocker: blocks the human TRPML1 channel. TRPML1-inducible cells, Ca2+ dye fluorescence, FDSS; active compounds read low; inhibition of EC80 agonist-evoked calcium signal. activity change, negative = inhibition, % (no concentration beside the values). hit rate 0.02% among 390,000. AID 624415; in the data active means activity change below about -50%; inconclusive means about -30% to -50%; inactive means above about -30%;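 also: stimulus is agonist 54-4 at its EC80 concentration; % is scaled to controls: 0 for no effect and ±100 for the full control effect; compound concentration not given in the record; the text of the record puts the active cut at -80%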
#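 Calcium fluorescence in TRPML1-DL cells induced overnight with Tet: a 110 s read after compound pin addition, then a 110 s antagonist read after challenge with 54-4 at 4 uM final (EC80).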
# D2 ag: agonists of human D2 dopamine receptor (beta-arrestin) | hit rate 0.084% among 360,000 | DiscoveRx PathHunter D2 beta-arrestin, luminescence, 90 min; 100% = 57 uM dopamine signal | activation, % (test concentration not listed) | AID 624465; in the data active = activation above about 40%; inconclusive = about 15% to 40%; inactive = below about 15%; also: compound concentration not given in the record; the text of the record calls up to 30% inactive
#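 Agonist mode: compounds alone added to overnight-plated D2 PathHunter cells for 90 min at 37 C, with 57 uM final dopamine (EC100) defining full response. Beta-arrestin recruitment detected by chemiluminescent reagent, read after 1 h at ambient temperature.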
# * hit, by the source's call; ? = inconclusive; nt = not tested or not shown; [ ] = dose if it differs, or a comment.
SMILES,TRPML1 agonist,Six1-Eya2 blk,PINK1 expr mod,D2 potentiator,TRPML1 blocker,D2 ag
CCSc1nnc(NC(=O)CSc2nnc(Cc3cccn3C)n2-c2ccc(F)cc2)s1,-0.2,-11,1.2%,-6,-1,-3.0
C/C(=N\Nc1nc2c(s1)CCCC2)c1ccccc1,2.5,-12,8.2%,-6,9,2.2
CSc1ccccc1C(=O)NCc1ccc(S(N)(=O)=O)cc1,0.0,7,0.9%,-20,-5,4.7
CC1(NC(=O)c2cc(S(=O)(=O)N3CCCCC3)ccc2Cl)CCS(=O)(=O)C1 (configuration not stated),-0.8,8,-1.0%,1,-4,-2.4
COc1ccc(C(=O)CC(=O)C(=O)Nc2ccccc2Cl)cc1,-0.6,11,6.3%,-11,-2,-1.3
COc1cccc(CNC(=O)c2cc3c(-c4ccccc4F)nn(C)c3s2)c1,5.1,nt,2.8%,nt,3,nt
c1ccc(-c2nnc(NC3=NCCC3)o2)cc1,-0.5,-6,0.9%,-23,-3,-5.9
COc1ccc(C(=O)N2CCC(C(=O)Nc3ccc(OC)c(OC)c3)CC2)cc1,-0.8,4,0.5%,-3,10,-1.0
Cc1cccnc1NC(=S)NCc1ccco1,1.2,5,0.5%,-8,-14,-2.7
COc1ccc(Cl)cc1S(=O)(=O)Oc1ccc(NC(C)=O)cc1,0.8,6,-0.9%,4,9,0.0
CCc1nc2c(OCC(=O)C(C)(C)C)cccn2c1N(C)C(=O)CC(C)C,-0.2,4,0.9%,-13,-12,-3.2
O=C(N/N=C\c1ccc(OC(=O)c2ccco2)cc1)c1ccc(Cl)cc1,1.0,11,1.3%,1,-15,-19
CCOC(=O)c1c(C)[nH]c(C(=O)N/N=C/c2ccc(Br)cc2)c1C,2.5,-14,14%,-30,-24,0.4
COc1ccc(/C=C/CN2CCC(n3nccc3NC(=O)C3CCCC3)CC2)cc1,-0.2,2,0.3%,-14,2,-3.3
COc1cc(CN(C(C)=O)c2ccccc2C(=O)O)ccc1[N+](=O)[O-],-0.2,3,-0.7%,-20,26,-5.6
O=C(NC(=S)NC1C2CC3CC(C2)CC1C3)c1ccccc1 (configuration not stated),-0.1,-16,?,-3,-3,-3.5
CCOc1cc(C=O)ccc1OS(=O)(=O)c1ccc(NC(C)=O)cc1,0.1,9,2.8%,-8,-11,1.7
Cc1cccc(C(=O)NNC(=O)c2ccccc2O)c1,-0.3,-3,0.7%,-20,-6,-0.4
O=C(N/C(=C\c1ccc([N+](=O)[O-])cc1)C(=O)N1CCOCC1)c1ccccc1,0.5,-9,-0.4%,4,-14,-2.7
CCOC(=O)c1cnc2ccc(Br)cc2c1NCCCN1CCOCC1,0.7,-3,-0.4%,-3,-4,-1.5

# Overlap with the part before: 4 compounds, followed by the next part.
SMILES,TRPML1 agonist,Six1-Eya2 blk,PINK1 expr mod,D2 potentiator,TRPML1 blocker,D2 ag
CCOc1cc(C=O)ccc1OS(=O)(=O)c1ccc(NC(C)=O)cc1,0.1,9,2.8%,-8,-11,1.7
Cc1cccc(C(=O)NNC(=O)c2ccccc2O)c1,-0.3,-3,0.7%,-20,-6,-0.4
O=C(N/C(=C\c1ccc([N+](=O)[O-])cc1)C(=O)N1CCOCC1)c1ccccc1,0.5,-9,-0.4%,4,-14,-2.7
CCOC(=O)c1cnc2ccc(Br)cc2c1NCCCN1CCOCC1,0.7,-3,-0.4%,-3,-4,-1.5
Cc1nn(C)cc1CN1CCC(n2nccc2NC(=O)CCCc2ccccc2)CC1,0.9,-3,0.6%,-13,0,-2.8
COc1ccc(CNC(=O)CCc2cn(C)c3ccccc23)cc1,0.7,nt,0.0%,nt,16,nt
O=C(Nc1cccc(S(=O)(=O)N2CCOCC2)c1)c1ccc(N2CCCC2=O)cc1,2.6,1,1.4%,-1,27,0.3
Cc1cc(CC(C)C)n(-c2nc3ccccc3c(=O)n2OCC(=O)N(C)C)n1,1.3,12,0.4%,-10,-11,-3.4
Cc1ccc(C(=O)OCC(=O)Nc2ccc(Cl)cn2)s1,-0.2,6,2.7%,0,-5,-1.4
CNC(=O)CSc1nccn1Cc1ccc(Cl)cc1,0.8,12,-0.1%,-1,13,2.0
CC(=O)O[C@@H]1[C@@]2(C)O[C@H]2CC[C@]23O[C@H]2[C@H](OC3=O)C2=C(C)C(=O)O[C@@]21O,-0.1,-16,0.1%,-3,-3,-0.8
[O-][N+](=Cc1ccccc1)CC1(O)CCCCC1,-0.1,27,-0.4%,-11,-3,-4.8
COc1ccccc1NC(=O)CSc1nc2nc(C)cc(C)c2c(=O)[nH]1,-0.5,-3,5.3%,5,32,-1.7
Cc1ccc(C(=O)c2ccc([N+](=O)[O-])cc2)cc1C,1.7,-29,2.4%[38.3 µM],14,16,4.8
COc1cc2c(cc1OC)C(c1ccc(N(C)C)cc1)NCC2 (configuration not stated),-0.9,-13,2.6%,-8,-2,-0.1
CCC(C)N1C(=O)/C(=C/c2c(NCCCOC(C)C)nc3c(C)cccn3c2=O)SC1=S (configuration not stated),?,-6,11%,-3,2,-2.9
CCOC(=O)CN1C(=O)N[C@@H](c2ccccc2)C(C(=O)OC)=C1C,-0.2,8,-0.1%,-14,36,-3.0
Cc1ccc(S(=O)(=O)Nc2nc3n(n2)C(c2ccc(Cl)cc2)C=C(c2ccccc2)N3)cc1 (configuration not stated),0.9,nt,0.8%,nt,8,nt
Cc1ccc(S(=O)(=O)N2CCN(CC(=O)NC3CCCc4ccccc43)CC2)c(C)c1 (configuration not stated),1.6,-3,0.1%[38.3 µM],-5,32,-4.9
CC(=O)Nc1cccc(NC(=O)CSc2nc3ccccc3o2)c1,0.8,4,2.2%,11,-1,0.9
O=C(N/N=C/c1ccc(O)cc1)c1cc(-c2ccc3c(c2)OCO3)n[nH]1,0.9,?,-0.8%,9,-1,0.9
CCOC(=O)C(=NO)C1=CSC2=NNC(C)(C)N12,0.1,-11,0.1%,-13,-7,-12
COc1ccc(CNC(=O)Cc2c(C)c3cc4c(C)coc4cc3oc2=O)cc1,-0.8,nt,1.6%,nt,-6,nt
Cc1cc(C)cc(N(C(C)C(=O)Nc2c(C)n(C)n(-c3ccccc3)c2=O)S(C)(=O)=O)c1 (configuration not stated),-0.4,2,1.1%,-10,12,-2.8
COc1cc(NC(=O)C2(C)CCN2C(C)C)cc(OC)c1OC (configuration not stated),-0.6,5,0.2%,-6,nt,-6.7
COC(=O)c1ccc(NC(=O)CSc2nnc(COc3c(C)cccc3C)o2)cc1,-0.1,0,-0.8%,-16,-8,-1.4
CCCCN1CC(=O)N2[C@@H]3c4cc(OC)ccc4OC[C@@H]3[C@H](C(=O)OCC)[C@]2(C)C1=O,-0.1,2,0.9%,0,9,-2.2
CC(Sc1nc(NC(C)(C)C)nc(N(C)C)n1)C(=O)Nc1ccccc1 (configuration not stated),0.7,6,2.3%,-31,5,2.9
Fc1ccc(-c2nc(Nc3ccc(F)c(Cl)c3)nc3c2COc2ccccc2-3)cc1,0.3,nt,-0.7%,nt,2,nt
COc1ccc(CCc2ccc3cc(OC)ccc3n2)cc1,3.2,3,3.1%,-6,-13,-0.4
COc1ccc(NC(=O)N(C)C[C@H]2Oc3ncc(Br)cc3C(=O)N([C@H](C)CO)C[C@@H]2C)cc1,-0.6,2,1.9%,2,7,-0.3
COC(=O)C(NC(=O)c1ccc(F)cc1)(Nc1ncc(S(=O)(=O)c2ccc([N+](=O)[O-])cc2)s1)C(F)(F)F (configuration not stated),0.9,-2,?,?,-8,13
CN1/C(=C/C(=O)c2nc(S(C)(=O)=O)ncc2Cl)C(C)(C)c2ccccc21,-0.1,-14,-0.9%,-42,1,-10
O=C(CN1CCN(c2ccc(O)cc2)CC1)Nc1cc(S(=O)(=O)N2CCCC2)ccc1Cl,0.4,?,1.4%,-3,-6,1.0
N#C/C(=C\c1ccc(N2CCOCC2)o1)c1nc2ccccc2[nH]1,60*,-28,14µM*,2,-13,3.8
Cc1ccccc1OCC(=O)Nc1cccc(C(=O)OCc2cc(=O)n3c(C)csc3n2)c1,3.3,nt,0.7%,nt,49,nt
COc1ccc(Cn2cccc(NC(=O)Nc3cccc(OC)c3)c2=O)cc1,2.1,0,-0.6%,-8,50,4.2
CCOc1ccc(Cl)cc1CNc1nnnn1C,-0.2,8,2.7%,-11,6,0.6
COc1ccccc1NC(=O)COC(=O)c1cc([N+](=O)[O-])ccc1N1CCCC1,-1.6,-20,1.1%,-1,-21,-0.8
Cc1ccc(S(=O)(=O)NCCc2sc3nc(-c4ccccc4)nn3c2C)cc1C,3.6,nt,0.2%,nt,-11,nt
Cc1c(Cl)cccc1NC(=O)N1CCN(C(=O)c2nsc3ccccc23)CC1,2.6,nt,0.4%,nt,16,nt
Cc1ccc(OCCSc2nnc(-c3cccs3)n2C)cc1,0.0,-4,0.0%,1,8,-1.0
Cc1nc2ccc(Br)cn2c1C(=O)N/N=C\c1ccccc1Cl,0.6,3,3.1%,-1,-17,-2.8
C#CCN1C(=O)S/C(=C/c2cc(C)n(CC)c2C)C1=O,-0.5,-14,?,17,11,-0.2
Cc1cccc(N(CC(=O)NC2CCCCC2)C(=O)Cn2nnc(-c3ccc(C)o3)n2)c1,2.6,9,0.3%,-3,-21,-1.7
Cc1ccc(N(C(=O)CNC(=O)c2ccco2)C(C(=O)NC2CCCCC2)c2ccncc2)cc1F (configuration not stated),-0.5,8,8.7%,-3,1,-0.5
N#CCCN1CCN(S(=O)(=O)c2ccc(S(=O)(=O)NC3CCCCC3)cc2)CC1,3.4,-2,-0.8%,-1,0,-1.4
COCC(C)n1c(C)cc(C(=O)COC(=O)c2cnc(Cl)c(Cl)c2)c1C (configuration not stated),-0.1,-17,1.1%,1,3,1.2
CCOC(=O)c1ccc(NC(=O)CCc2nc3cccnc3n2Cc2cccs2)cc1,1.1,nt,5.3%,nt,-10,nt
NC(=O)C1CCN(C(=O)C(Cc2ccccc2)NC(=O)c2ccccc2)CC1 (configuration not stated),0.8,9,0.2%,-2,12,4.4
c1ccc(CN2CCC3CC2c2cc(N4CCCCC4)ccc23)cc1 (configuration not stated),0.1,?,4.7%,-5,-8,-9.7
CCOC(=O)c1c(CN2CCOCC2)n(-c2ccccc2)c2cc(Br)c(O)cc12,0.6,14,nt,-6,10,-1.1
Cc1c(NC(=O)c2ncn[nH]2)cccc1-c1nc2ccccc2s1,1.4,?,-0.7%,-4,-11,2.1
C=CCNC(=O)NC(=O)COC(=O)CNS(=O)(=O)c1ccc(F)c(F)c1F,3.2,1,2.8%,7,-14,-6.6
CC1CCCC(C)N1S(=O)(=O)c1ccc(NC(=O)CNCC2CCCO2)cc1 (configuration not stated),0.4,6,1.4%[38.3 µM],-2,1,-0.5
CCN1CCN(c2cc(N3CCN(C(=O)c4ccco4)CC3)c3c4c(onc24)-c2ccccc2C3=O)CC1,0.2,?,0.8%,4,-1,3.0
CCn1c(SCC(=O)Nc2ccc3c(c2)n(C)c(=O)n3C)nnc1-c1ccncc1,0.6,-5,1.9%,4,29,-4.6

# Screening results deposited in PubChem BioAssay by National Center for Advancing Translational Sciences (NCATS).
